# N370S GC = inhibits or activates N370S mutant glucocerebrosidase; P04062; N370S GC spleen homogenate, 4MU-glucoside fluorescence; Potency, µM (highest dose often 59.4 µM), for the others: at the top dose activity change, negative = inhibition, actives largely listed as inhibitors; hit rate 0.092% among 330,000;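 also: 0% = full enzyme activity and -100% = no enzyme basal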
# FEN1 inh = blocks human flap endonuclease 1 | hit rate 0.35% among 390,000 | P39748 | Potency, µM (top dose mostly 114 µM), for inactives: at the highest dose activity change, negative = inhibition, actives largely listed as inhibitors | Recombinant FEN1 flap cleavage, fluorescence, 15 min; also: nearly all actives have a fitted effect of over 65% in size
# Target sequence (P39748 whole entry, looked up): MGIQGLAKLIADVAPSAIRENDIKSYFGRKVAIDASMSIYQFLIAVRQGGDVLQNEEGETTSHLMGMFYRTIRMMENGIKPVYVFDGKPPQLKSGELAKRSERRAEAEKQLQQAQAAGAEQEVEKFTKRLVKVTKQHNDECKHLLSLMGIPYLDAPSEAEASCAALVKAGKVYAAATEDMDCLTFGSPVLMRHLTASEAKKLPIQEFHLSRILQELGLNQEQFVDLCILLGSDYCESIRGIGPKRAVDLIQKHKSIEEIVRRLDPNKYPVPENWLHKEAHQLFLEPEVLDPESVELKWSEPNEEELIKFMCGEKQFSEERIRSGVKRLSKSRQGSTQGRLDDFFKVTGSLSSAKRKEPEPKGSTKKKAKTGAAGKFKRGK
#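 FEN1 at 10 nM preincubated with compounds 15 min at room temperature, then flap DNA substrate added at 50 nM final. Signal read at 0 and 15 min; concentration-response fitted with four-parameter Hill equation.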
# The depositor's hits bear a star; u = inconclusive; x = no result given; & = joins results of further samples; [ ] = remark or other dose. Calls follow the shape of the dose curve; as a rule, active = well fitted curve in the direction sought with a large enough effect; inconclusive = small, poorly fitted or top-dose-only effect, or another doubt; inactive = no such curve, though single readings can be large; an effect the other way counts as inactive or inconclusive. Unless noted, % is scaled to controls: 0 for no effect and ±100 for the full control effect; potency is read from the fitted curve at half-maximal effect. An excerpt; most or all hits stand in other tables.
# Sample of the layout:
SMILES,N370S GC,FEN1 inh
N#Cc1ccc(C(=O)OCC(=O)Nc2ccc(S(N)(=O)=O)cc2)cc1,4%,13%
CN(Cc1ccc(F)cc1Cl)S(=O)(=O)c1cccs1,-4%,11%

# Results, repeating the preview:
SMILES,N370S GC,FEN1 inh
N#Cc1ccc(C(=O)OCC(=O)Nc2ccc(S(N)(=O)=O)cc2)cc1,4%,13%
CN(Cc1ccc(F)cc1Cl)S(=O)(=O)c1cccs1,-4%,11%
CCc1ccc(NC(=O)Cn2c(=O)c(CNc3ccccc3)cc3cc(OC)c(OC)cc32)cc1,x,8%
O=C(O)CCNC(=O)COc1ccc2c3c(c(=O)oc2c1)CCCC3,0%,-16%
O=C(NC1CCCC1)C(c1ccc(F)cc1)N(Cc1ccc(Cl)cc1)C(=O)CCl (stereo not drawn),-2%,-8%
O=[N+]([O-])c1ccc(Cl)c(C2Nc3cccc4cccc(c34)N2)c1,1%,-27%
CO/N=C/C(c1ncc(C(F)(F)F)cc1Cl)S(=O)(=O)c1ccccc1 (stereo not drawn),-2%,10%
COc1ccc(CNC(=O)c2cc3c(=O)n(Cc4ccco4)ccc3nc2C)c(OC)c1,x,3%
O=C(NCc1ccncc1)c1cc(-c2ccc(Cl)cc2)oc1C(F)(F)F,1%,2%
N#Cc1ccc(-c2nc3cc(C#N)c(C#N)cc3nc2-c2ccccc2)cc1C#N,-9%,x
O=C(O)c1cccc(S(=O)(=O)Nc2ccc(N3CCCCC3)cc2)c1,x,6%
Cc1cccc2c1NC1(CCCC1)CC2C (stereo not drawn),1%,-11%
C[C@@]12CCC3c4ccc(OS(=O)(=O)O)cc4CCC3C1CCC2O (stereo partly drawn),-3%,x
CC1CCCC(NC(=O)c2cn(C)c3ccc(S(=O)(=O)N4CCCC4)cc3c2=O)C1C (stereo not drawn),-18%,x
Brc1ccccc1OCCCN1CCCC1,-3%,-15%
Cc1cccc(-c2nc(C)cc(=O)[nH]2)c1,1%,-6%
CC1(C)CC(=O)C(CC2CCCCC2=O)C(=O)C1 (stereo not drawn),2%,-12%
O=C(CN(C(=O)c1csnn1)c1cccc2ccccc12)NCc1ccccc1,-7%,-3%
COc1ccccc1P(=O)(c1ccccc1)c1ccccc1,-10%,21%
O=C(CCCCCCC(=O)NCc1ccccc1)NCc1ccccc1,1%,2%
Cc1cccc(C)c1NC(=O)CS(=O)CC(=O)Nc1ccc(N2CCOCC2)cc1 (stereo not drawn),-5%,-14%
COc1ccc(S(=O)(=O)N2CCOCC2)cc1NC(=O)CCNC(=O)c1ccc(Cl)cc1,-11%,12%
O=C(Cc1ccc(Cl)cc1)Oc1cccc2cccnc12,-1%,-6%
O=S(=O)(NCCC1=CCCCC1)c1ccccc1Br,12%,-10%
CCSC1(SCC)N=C(N)C2(C#N)C(c3ccc(F)cc3)C12C#N (stereo not drawn),-10%,-10%
c1ccc(CSC2=NNC(c3ccccn3)S2)cc1 (stereo not drawn),-8%,1%
NS(=O)(=O)c1ccc(NC(=O)CSc2ncn[nH]2)cc1,5%,12%
COc1cc(N2C(=O)CSC23C(=O)N(Cc2ccc(C)cc2)c2ccccc23)cc(OC)c1OC (stereo not drawn),x,-15%
CCN(CC)C(=O)n1cnc(-c2ccccc2)c1-c1ccccc1,7%,0%
COc1ccccc1CC(=O)Nc1ccc(C(=O)N2CCCCC2)cc1,-9%,3%
CC(C)[C@H]1C(=O)Nc2ccccc2N1C(=O)N[C@@H](Cc1ccccc1)C(=O)N[C@H](C(=O)O)c1ccccc1,3%,1%
O=C1OC(N2C(=O)CC[C@H]2C(=O)NCC2CCCO2)c2ccccc21 (stereo partly drawn),-2%,0%
COc1ccc(C(=O)N2CCc3cc(OC)c(OC)cc3C2)cc1OC,8%,1%
CCOC(=O)N1CCN(c2c(Nc3ccc4c(c3)OCCO4)c(=O)c2=O)CC1,-7%,-3%
COC(=O)c1ccc(OCC(O)CNCC(c2ccc(OC)cc2)N(C)C)c(OC)c1 (stereo not drawn),-3%,-2%
CCn1c(CNC(=O)Cc2ccc(OC)cc2)nnc1SCC(=O)Nc1nccs1,4%,6%
Cc1sc2nc(SCC(=O)N3CCOCC3)[nH]c(=O)c2c1-c1ccccc1,-1%,0%
CCOc1ccc(Br)cc1S(=O)(=O)Nc1ccc(N2CCOCC2)cc1,8%,-14%
CC(C)CC(C(=O)NCc1ccccn1)N1C(=O)c2ccccc2C1=O (stereo not drawn),5%,7%
COC(=O)CCCC(=O)Nc1ccc(Br)cc1,0%,2%
CC(C)=CC(=O)OCC(=O)NC(=O)NC(C)(C)C,-2%,-7%
N#CC1=C(N)NC(SCC(=O)Nc2ccc(Br)cc2)=C(C#N)C12CCCCC2,-10%,-1%
CC(C)(C)C(=O)Nc1cccc(S(=O)(=O)NC2=NCCC2)c1,0%,-3%
CCc1nc(C)cn1S(=O)(=O)c1cc(Br)ccc1OC,0%,-2%
O=c1[nH]c(=S)[nH]c(O)c1N=Nc1ccc(-c2ccccc2)cc1[N+](=O)[O-],-14%,x
Cc1nc(NC(=O)CSc2nnc(Cn3nnc4ccccc43)n2C)sc1C,-5%,-3%
Cc1ccc2[nH]c3c(=O)n(CCCN4CCOCC4)cnc3c2c1,13%,7%
CCc1noc(C)c1C(=O)N(Cc1ccccc1)c1c(N)n(CCOC)c(=O)[nH]c1=O,-13%,-1%
COc1ccc(CC(=O)NCC(=O)N/N=C/c2cc(Br)ccc2OC)cc1,-6%,-10%
COc1ccccc1CNC(=O)CCC(=O)N1CCOc2ccc(Cl)cc21,u,-3%
N#Cc1ccc(C23OCCN2CCn2c3c3ccccc3[n+]2[O-])cc1 (stereo not drawn),x,16%
COc1ccccc1Nc1ncnc2c1c(C)c(C)n2CCCN(C)C,-16%,-28%
NC(=O)CC[C@@H]1NC(=O)C(Cc2ccc(O)cc2)NC(=O)c2cc([N+](=O)[O-])cc(F)c2NCCC[C@@H](C(N)=O)NC1=O (stereo partly drawn),11%,x
CC1CCN(C(=O)CN(c2ccccc2)S(=O)(=O)N(C)C)CC1,-8%,-8%
CC1CCN(c2ccc(-c3nc(-c4ccccc4)no3)cc2[N+](=O)[O-])CC1,x,-14%
CC(C)NC(=O)C(=O)NCCN1CCN(C(=O)c2ccc(C(C)(C)C)cc2)CC1,-1%,1%

# Next part.
SMILES,N370S GC,FEN1 inh
N#C/C(=C(/O)c1ccc(Cl)cc1)c1nc2ccccc2[nH]1,0%,-5%
Cn1c(=O)c2c(SCC(=O)NCc3ccco3)nc(CC(C)(C)C)nc2n(C)c1=O,-14%,-23%
O=C(COc1ccccc1O)c1cccs1,1%,3%
Cc1cccc(-[n+]2c(C)cc(C)c3c(=O)[nH]c(=O)[nH]c32)c1,5%,-1%
CC1=C(C#N)C(/C=N/OCc2ccc(Cl)cc2)CC(=O)N1 (stereo not drawn),16%,2%
O=C(OCC(=O)N1CCCCC1)c1c[nH]c2ccccc12,x,-1%
Cc1c2cnn(-c3ccccc3)c(=O)c2c(C)n1CCCC(=O)NCCN1CCN(C)CC1,1%,9%
Cc1nn(-c2ccc(N3CCOCC3)nn2)c(C)c1CCC(=O)NCc1ccccc1F,-11%,2%&-8%
O=C(CN1C(=O)c2ccccc2S1(=O)=O)c1ccccc1F,-9%,-5%
O=c1c2c3c(sc2nc2n1CCCS2)CCCC3,21%,-2%
O/N=C1/CCSc2ccccc21,7%,-10%
Cc1nn(-c2ccccc2)c(C)c1NC(=O)COC(=O)c1ccccc1OC(F)F,1%,22%
Cc1ccc(C(=O)Nc2ccc(O)cc2C(=O)O)cc1,4%,-5%
COc1ccc(N2C(=O)CC(n3cnc4ccccc43)C2=O)cc1 (stereo not drawn),0%,0%
Cc1cccc(N2C(=O)CSC23C(=O)N(C)c2ccccc23)c1 (stereo not drawn),x,-8%
O=C(NCc1ccc(F)cc1)C(=O)NCC1OCCN1S(=O)(=O)c1ccc2c(c1)OCCO2 (stereo not drawn),7%,-2%
COc1ccc(-c2nnc(SCCOc3cccc(C)c3)n2N)cc1,-8%,1%
CCCCCSc1nnc(-c2ccccc2N)c(=O)[nH]1,26%,7%
COc1ccc(NS(=O)(=O)c2ccc3c(c2)CCCN3C(C)=O)cc1,-7%,5%
COC(=O)c1ccc(-c2noc(CN(C)CC3CCCCO3)n2)cc1 (stereo not drawn),14%,11%
Cc1ccc(Cl)cc1NC(=O)N[C@@H](C)C(=O)O,-2%,-6%
CC(NC(N)=O)C(=O)OCC(=O)c1ccc(-c2ccccc2)cc1 (stereo not drawn),5%,18%
COc1ccc(CC(=O)OCC(=O)Nc2ccc3c(c2)OCO3)cc1,-5%,0%
CCO[C@@H]1OC(C(=O)N2CCN(Cc3ccc4c(c3)OCO4)CC2)=C[C@H](c2csc3ccccc23)[C@H]1CCCO,-24%,u
O=C(CC1C(=O)NCCN1CCCc1ccccc1)NCCc1ccccc1F (stereo not drawn),-27%,4%
O=S(=O)(Nc1ccc2oc(-c3ccccc3)nc2c1)c1ccccc1,-4%,-23%
Cn1nnc2cc(NC(=O)Nc3cccc(Cl)c3)ccc21,0%,-2%
CCN1CCN(c2ccc(S(=O)(=O)N3CCOCC3)cc2NC(=O)c2ccc(C(F)(F)F)cc2)CC1,-9%,-3%
CC(=O)c1cccc(NC(=O)COC(=O)COc2ccc(Cl)cc2)c1,0%,10%
COc1cc(C(=O)Nc2nnc(CC(=O)NCc3ccccc3)s2)cc(OC)c1OC,-1%,-11%
COc1c(C(=O)Nc2ccc(Cc3ccncc3)cc2)ccc2ccccc12,5%,-15%
O=C(NCC1CCCO1)C(c1ccco1)N(Cc1ccc(F)cc1)C(=O)CN1C(=O)c2ccccc2S1(=O)=O (stereo not drawn),-13%,0%
Cc1nc(SCC(=O)NNC(=O)c2cccs2)[nH]c(=O)c1C,16%,-3%
CC(CN1C(C)CCCC1C)OC(=O)c1cccc(F)c1 (stereo not drawn),-7%,-17%
c1ccc2c(c1)OCC(c1nnc3sc(-c4ccc5c(c4)OCO5)nn13)O2 (stereo not drawn),0%,8%
Cc1nnc(SC(C(=O)Nc2cc(Cl)cc(Cl)c2)c2ccccc2)[nH]c1=O (stereo not drawn),-1%,-3%
CCN(CC)C(=O)c1cc(-c2ccc3c(c2)OCO3)on1,6%,0%
CC1=C(C(=O)Nc2ccccc2C(=O)NCCCN2CCN(C)CC2)SCCO1,-1%,17%
CCCN(CCC)C(=O)/C=C/c1cccc([N+](=O)[O-])c1,-3%,15%
O=C(/C=C/c1ccccc1)c1ccoc1,2%,-2%
CCC(C)Nc1nc(N)c([N+](=O)[O-])c(NCCO)n1 (stereo not drawn),-11%,8%
CCOc1ccc(/C=C/C(=O)Nc2ccc(C(N)=O)cc2)cc1OC,13%,-16%
CCOC(=O)c1c(O)c2c([nH]c1=O)CCCC2,-2%,-3%
CC(=O)NC(Cc1ccc(F)c(F)c1)C(=O)NC1CCN(C(=O)c2ccc(C)cc2)CC1 (stereo not drawn),0%,-3%
O=C1C2C3c4ccccc4C(c4ccccc43)C2C(=O)N1c1nc(-c2ccccc2)cs1 (stereo not drawn),5%[12.8 µM],8%
O=C(COc1cccc2ccccc12)NNC(=O)Nc1ccccc1,10%,5%
Cc1ccc(C(=O)Nc2cccc(C(F)(F)F)c2)cc1Nc1cnccn1,7%,-18%
O=C(Nc1ncc2c(n1)CC(c1ccccc1)CC2=O)c1ccco1 (stereo not drawn),3%,1%
CCOP(=O)(c1ccc(N(C)C)cc1)C(O)c1ccc(C)cc1 (stereo not drawn),-13%,2%
CCOC(=O)/C=C/C(=O)OCC(=O)Nc1ccc(Cl)cc1Cl,-11%,-12%
Cc1ccc2nc(C)cc(N/N=C/c3ccccc3O)c2c1,21%,-18%
CC(NC(=S)N1CCN(c2ccccc2)CC1)c1ccccc1 (stereo not drawn),-9%,-13%
CCOC(=O)C(O)(NC(=O)c1cccnc1)C(F)(F)F (stereo not drawn),4%,8%
O=C(Nc1ccc(Cl)cc1)N[C@@H]1c2c(ccc3ccccc23)OC[C@@H]1CO,0%,-13%
Cc1nn(C)cc1-c1n[nH]c(=S)n1-c1ccc(Cl)cc1,3%,1%
O=C(CCCCn1c(=O)[nH]c2ccccc2c1=O)NCc1ccc2c(c1)OCO2,u,-5%

# In a second layout: entries from further up.
# Below each compound: N370S GC, FEN1 inh
CCOP(=O)(c1ccc(N(C)C)cc1)C(O)c1ccc(C)cc1 (stereo not drawn)
 : -13%, 2%
CCOC(=O)/C=C/C(=O)OCC(=O)Nc1ccc(Cl)cc1Cl
 : -11%, -12%

# Following part
SMILES,N370S GC,FEN1 inh
O=C(NCC(=O)N(CC1CCCO1)C(C(=O)NC1CCCC1)c1ccc(F)cc1)c1ccco1 (stereo not drawn),3%,8%
Cc1cnc(C(=O)Oc2cccc(Cl)c2Cl)cn1,-17%,2%
Cc1ccc(NC(=O)C2CCCN(c3ncnc4c3nc3n4CCCCC3)C2)cc1F (stereo not drawn),x,-5%
COc1ccc(NC(=S)NCCCN2CCN(C3CCCCC3)CC2)cc1,-2%,16%
CCn1c(-c2ccccc2Cl)nn(CC(=O)Nc2ccccc2OC)c1=S,8%,-6%

# Screens from PubChem BioAssay.
